# Source: PubChem
# STAT3 SMM = STAT3 binders, primary screen, biochemical, small molecule microarray, single point, set 2; calls only; 0.2% of 17,000 active; AID 624138, 2012; His-STAT3 binding, anti-His fluorescence; Signal transducer and activator of transcription 3 (Homo sapiens), P40763;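 active = compounds whose four printed spots each show fluorescence over background unusually high for their array block, chance value under 7%; compounds were printed on slides so no solution concentration is given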;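 note: about 2 pmol printed per array spot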
# Target sequence (P40763 whole entry, looked up): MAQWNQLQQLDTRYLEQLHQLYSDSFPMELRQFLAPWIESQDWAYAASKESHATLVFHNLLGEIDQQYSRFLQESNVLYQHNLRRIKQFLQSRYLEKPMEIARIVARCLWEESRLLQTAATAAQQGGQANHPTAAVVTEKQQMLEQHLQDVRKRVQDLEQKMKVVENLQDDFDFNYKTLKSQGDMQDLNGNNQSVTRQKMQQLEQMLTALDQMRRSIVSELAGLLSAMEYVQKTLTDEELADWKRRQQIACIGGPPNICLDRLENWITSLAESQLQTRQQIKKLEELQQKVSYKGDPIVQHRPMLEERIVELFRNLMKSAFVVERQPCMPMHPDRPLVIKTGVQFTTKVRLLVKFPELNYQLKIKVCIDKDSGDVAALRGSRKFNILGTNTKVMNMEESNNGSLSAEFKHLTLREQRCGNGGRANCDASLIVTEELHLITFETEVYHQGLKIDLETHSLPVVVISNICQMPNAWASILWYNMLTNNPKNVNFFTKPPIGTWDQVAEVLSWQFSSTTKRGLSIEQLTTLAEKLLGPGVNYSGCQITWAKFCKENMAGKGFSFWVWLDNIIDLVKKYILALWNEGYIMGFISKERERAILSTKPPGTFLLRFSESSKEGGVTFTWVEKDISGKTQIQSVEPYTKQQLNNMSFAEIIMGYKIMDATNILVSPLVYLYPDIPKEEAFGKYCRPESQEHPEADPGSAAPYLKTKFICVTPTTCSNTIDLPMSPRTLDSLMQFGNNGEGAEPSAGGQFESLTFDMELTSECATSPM
# c-Myc SMM = binders of human c-Myc, primary screen, biochemical, small molecule microarray, anti-His fluorescence; AID 624141, 2012; Myc proto-oncogene protein (Homo sapiens), P01106; 1.5% of 17,000 active; calls only; His-c-Myc binding;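 active = spot fluorescence over background with P-value below 7% in all four replicate spots, showing protein binding; compounds were printed on slides so no solution concentration is given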;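 note: score is binary with 100 for all four spots passing and 0 otherwise; about 2 pmol printed per array spot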
# ID4 binder = binders of human ID4 protein, primary screen, biochemical, small molecule microarray, single point | Flag-ID4 binding, fluorescence F/B | DNA-binding protein inhibitor ID-4 (Homo sapiens), P47928 | calls only | 1.2% of 31,000 active | AID 624137, 2012;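 active = spot signal over background at p below 0.07 in all four prints; compounds were printed on slides so no solution concentration is given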;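 note: a binder raises fluorescence above local background on the spot; about 2 pmol printed per array spot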
# Target sequence (P47928 whole entry, looked up): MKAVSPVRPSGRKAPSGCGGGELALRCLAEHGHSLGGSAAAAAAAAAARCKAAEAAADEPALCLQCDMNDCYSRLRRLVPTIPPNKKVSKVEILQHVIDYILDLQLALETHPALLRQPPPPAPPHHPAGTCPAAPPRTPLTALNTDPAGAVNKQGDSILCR
# mut p53 SMM = binders of human mutant p53, primary screen, biochemical, small molecule microarray, anti-GST fluorescence. mutant tumor protein p53 (GST-tagged), Homo sapiens. small molecule microarray binding. calls only. 0.4% of 17,000 active;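 active = compounds whose four printed spots each glow above background more than chance allows, each with a p-value under 7%; compounds were printed on slides so no solution concentration is given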;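 note: about 2 pmol printed per array spot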
# Calls only; i = inactive; . = no result given; + = active, no number.
SMILES,STAT3 SMM,c-Myc SMM,ID4 binder,mut p53 SMM
Cc1noc(C)c1NC(=O)N(C)C[C@@H]1Oc2ccc(NC(=O)Cc3ccccc3)cc2C(=O)N([C@H](C)CO)C[C@@H]1C,i,i,i,i
C[C@H]1CN([C@@H](C)CO)C(=O)Cc2cc(NC(=O)Nc3ccccc3)ccc2O[C@H]1CN(C)C(=O)Nc1ccc(F)cc1,i,i,i,i
C[C@H]1CN([C@@H](C)CO)C(=O)Cc2cc(NC(=O)CCN3CCOCC3)ccc2O[C@@H]1CN(C)S(=O)(=O)c1cccs1,i,i,i,i
O=C(NCc1nc2ccccc2[nH]1)C1=C[C@H](c2csc3ccccc23)C[C@H](OCCCCO)O1,i,i,i,i
O=C(CCc1nc2ccccc2[nH]c1=O)OCc1c(F)cccc1Cl,i,i,i,i
Cc1cc(C(=O)Nc2cccc3c2O[C@H](CN(C)CC2CC2)[C@H](C)CN([C@H](C)CO)C3=O)n(C)n1,i,i,i,i
COc1ccccc1-c1cc(=O)c2c(O[C@@H]3O[C@H](CO)[C@@H](O)[C@H](O)[C@H]3O)cc(OC)c(OC)c2o1,i,i,i,i
Cc1cc(C(=O)O)ccc1NC(=O)CNC(=O)C1CCCCC1,i,i,i,i
C[C@@H]1CN([C@H](C)CO)C(=O)c2cccc(NC(=O)Nc3ccc4c(c3)OCO4)c2O[C@@H]1CN(C)CC1CCCCC1,i,i,.,i
C[C@@H]1CN([C@H](C)CO)C(=O)Cc2cc(NC(=O)NC3CCCCC3)ccc2O[C@@H]1CN(C)Cc1ccc(C(F)(F)F)cc1,i,i,.,i
C[C@@H]1CN([C@H](C)CO)C(=O)c2cc(NS(=O)(=O)c3cn(C)cn3)ccc2O[C@@H]1CN(C)C(=O)Nc1ccc2c(c1)OCO2,i,i,i,i
C[C@@H]1CCCCO[C@@H](CN(C)S(=O)(=O)c2ccccc2)[C@H](C)CN([C@H](C)CO)C(=O)c2cc(N(C)C)ccc2O1,i,i,i,i
C[C@@H]1CCCCO[C@H](CN(C)C(=O)Nc2ccc(F)cc2)[C@@H](C)CN([C@H](C)CO)C(=O)c2cc(NS(=O)(=O)c3ccccc3)ccc2O1,i,i,i,i
C[C@H]1CCCCO[C@H](CN(C)C(=O)c2ccncc2)[C@@H](C)CN([C@@H](C)CO)C(=O)c2cc(NC(=O)CCC(F)(F)F)ccc2O1,i,i,i,i
CCOc1ccccc1NC(=O)CSc1nc(N)cc(=O)[nH]1,i,i,i,i
C[C@H]1CN([C@@H](C)CO)C(=O)c2cc(NC(=O)Nc3ccc4c(c3)OCO4)ccc2O[C@H]1CN(C)Cc1ccncc1,i,i,i,i
C[C@@H]1CN([C@@H](C)CO)C(=O)Cc2cc(NC(=O)NC3CCCCC3)ccc2O[C@H]1CN(C)C(=O)Nc1ccc(C(F)(F)F)cc1,i,i,i,i
Cc1ccc(NC(=O)CSc2nc(C)cc(-c3ccccc3)n2)cc1,i,i,i,i
Cc1sc2ncnc(SCC(=O)Nc3cc(C(F)(F)F)ccc3Cl)c2c1C,i,i,i,i
CCc1ccccc1NC(=O)CSc1nnc(-c2cc3ccccc3cc2O)n1C,i,i,i,i
C=CC[C@]1(C(=O)OC)N=C(c2ccc(OCCCO)cc2)O[C@H]1c1ccccc1CN=[N+]=[N-],i,i,i,i
C[C@@H]1CN([C@@H](C)CO)C(=O)CCCn2cc(nn2)CO[C@H]1CN(C)C(=O)CCCN(C)C,i,i,i,i
C[C@@H]1CN([C@H](C)CO)C(=O)Cc2cc(NS(=O)(=O)c3cccs3)ccc2O[C@@H]1CN(C)C(=O)Nc1cccc2ccccc12,i,i,i,i
C[C@H](CO)N1C[C@H](C)[C@@H](CN(C)S(=O)(=O)c2ccc(Cl)cc2)Oc2c(NC(=O)Nc3ccccc3)cccc2C1=O,i,i,.,i
Cc1ccc(-c2cc3ccccn3c2C(=O)CSc2nnc(C)s2)cc1,i,+,i,i
COc1ccccc1NC(=O)c1ccc(OCC(=O)O)cc1,i,i,i,i
Nc1ncnc(Oc2cccc3cccnc23)c1[N+](=O)[O-],i,i,i,i
COc1ccc(NC(=O)Nc2ccc3c(c2)C(=O)N([C@H](C)CO)C[C@@H](C)[C@H](CN(C)Cc2ccc(C(=O)O)cc2)O3)cc1,i,i,i,i
CC(=O)[C@H]1CC[C@H]2[C@@H]3C=CC4=CC(=O)CC[C@@]4(C)[C@@H]3CC[C@]12C,i,i,i,i
COc1ccc(-c2cnc3c(c2)C(=O)N([C@H](C)CO)C[C@H](C)[C@H](CN(C)S(=O)(=O)c2ccc(OC)cc2)O3)cc1,i,i,i,i
C[C@H](CO)N1C[C@H](C)[C@H](CN(C)C(=O)c2ccccc2)OCCCC[C@H](C)Oc2ccc(NS(=O)(=O)c3cn(C)cn3)cc2C1=O,i,i,i,i
C[C@H](CO)N1C[C@H](C)[C@@H](CN(C)C(=O)NC2CCCCC2)Oc2ccc(NS(=O)(=O)c3ccccc3)cc2CC1=O,i,i,i,i
COc1ccc(OC)c(NS(=O)(=O)c2cccc3cccnc23)c1,i,i,i,i
C[C@@H]1CN([C@@H](C)CO)C(=O)c2cccc(NC(=O)C3CCOCC3)c2O[C@@H]1CN(C)Cc1ccncc1,i,i,i,i
C[C@H]1CN([C@@H](C)CO)C(=O)c2cccc(NS(=O)(=O)c3cn(C)cn3)c2O[C@H]1CN(C)S(=O)(=O)c1cn(C)cn1,i,i,i,i
C[C@H](CO)N1C[C@H](C)[C@@H](CN(C)S(=O)(=O)c2ccc(-n3cccn3)cc2)OCc2cn(nn2)CCCC1=O,i,i,i,i
COC(=O)c1cc(O)cc(O)c1C(=O)c1c(O)c(Cl)c(C)c(Cl)c1OC,i,i,i,i
c1ccc(OCc2nn3c(Cn4cnc5ccccc54)nnc3s2)cc1,i,i,i,i
C[C@@H]1CN([C@H](C)CO)C(=O)c2cc(NC(=O)Cn3cnnn3)ccc2O[C@H]1CN(C)Cc1ccncc1,i,i,i,i
CS(=O)(=O)Nc1ccc(S(=O)(=O)NCC2CCCO2)cc1 (stereo not drawn),i,i,i,i
COc1ccc(OCC(=O)Nc2sc3c(c2C#N)CCC3)cc1,i,i,i,i
Cc1noc(C)c1S(=O)(=O)Nc1ccc2c(c1)CC(=O)N([C@@H](C)CO)C[C@@H](C)[C@@H](CN(C)C)O2,i,i,i,i
C[C@H]1CN([C@@H](C)CO)C(=O)c2cccc(NS(C)(=O)=O)c2O[C@H]1CN(C)S(=O)(=O)c1ccc(Cl)cc1,i,i,i,i
C[C@@H]1CCCCO[C@H](CN(C)C(=O)Cc2ccccc2)[C@@H](C)CN([C@H](C)CO)C(=O)c2cc(NC(=O)Cc3ccccc3)ccc2O1,i,i,.,i
COc1ccc(NC(=O)Nc2cccc3c2O[C@@H](CN(C)S(=O)(=O)c2ccc(OC)cc2)[C@H](C)CN([C@H](C)CO)C3=O)cc1,i,i,i,i
C[C@H]1CN([C@@H](C)CO)C(=O)Cc2cc(NS(C)(=O)=O)ccc2O[C@@H]1CN(C)CC1CC1,i,i,i,i
COC(=O)c1cn(CC(=O)Nc2ccon2)nn1,i,i,.,i
C[C@H](CO)N1C[C@H](C)[C@H](CN(C)S(=O)(=O)c2ccc(Cl)cc2)Oc2c(NC(=O)c3nc4ccccc4s3)cccc2C1=O,i,i,.,i
CCc1ccc(OCC(=O)Nc2ccccc2C(N)=O)c(Br)c1,i,i,i,i
Cc1ccc(-c2cc(C(F)F)n3ncc(C(=O)N4CCCCC4c4cccnc4)c3n2)cc1 (stereo not drawn),i,i,i,i
C[C@@H]1CN([C@@H](C)CO)C(=O)Cc2cc(NC(=O)Nc3ccc(F)cc3)ccc2O[C@H]1CN(C)Cc1ccc(C(=O)O)cc1,i,i,i,i
CCOc1ccc(NC(=O)CSc2nc3nc(C)cc(C)n3n2)cc1,i,i,i,i
Cc1cccc(-n2c(SCC(=O)O)nnc2-c2cccs2)c1C,i,i,i,i
CCCN(C)C[C@H]1OCCCC[C@@H](C)Oc2ccc(NS(=O)(=O)c3ccc(OC)cc3)cc2C(=O)N([C@@H](C)CO)C[C@H]1C,i,+,i,+
COc1ccc(NC(=O)Nc2ccc3c(c2)C(=O)N([C@H](C)CO)C[C@H](C)[C@H](CN(C)S(=O)(=O)c2cccs2)O3)cc1,i,i,i,i
C[C@@H]1CCCCO[C@@H](CN(C)C)[C@H](C)CN([C@H](C)CO)C(=O)c2cc(NS(C)(=O)=O)ccc2O1,i,i,i,i
CNC[C@H]1OCCCC[C@@H](C)Oc2ccc(NS(=O)(=O)c3ccccc3)cc2C(=O)N([C@H](C)CO)C[C@H]1C,i,i,i,i
COC(=O)c1c(NC(=S)Nc2ccn(C)n2)sc(C(=O)N(C)C)c1C,i,i,i,i
C[C@@H]1CN([C@@H](C)CO)C(=O)Cc2cc(NS(=O)(=O)c3cccs3)ccc2O[C@H]1CN(C)S(=O)(=O)c1ccc(Cl)cc1,i,i,i,i
COc1ccc(NC(=O)Nc2ccc3c(c2)C(=O)N([C@@H](C)CO)C[C@H](C)[C@@H](CN(C)Cc2ccc(-c4ccccc4)cc2)O3)cc1,i,i,.,i

# Continuation:
SMILES,STAT3 SMM,c-Myc SMM,ID4 binder,mut p53 SMM
Cc1noc(C)c1NC(=O)N(C)C[C@H]1Oc2ccc(NC(=O)Nc3ccc(F)cc3)cc2CC(=O)N([C@@H](C)CO)C[C@H]1C,i,i,i,i
NC(=O)[C@]1(CCS(=O)(=O)c2ccccc2)N=C(c2ccc(OCCCO)cc2)O[C@@H]1c1ccccc1,i,i,i,i
CCc1ccc2c(c1)C(O)(CC(=O)c1ccco1)C(=O)N2 (stereo not drawn),i,i,i,i
Cc1noc(C)c1S(=O)(=O)Nc1ccc2c(c1)C(=O)N([C@H](C)CO)C[C@@H](C)[C@@H](CN(C)C(=O)c1ccncc1)OCCCC[C@@H](C)O2,i,i,i,i
CC(C)[C@H](NC(=O)OCc1ccccc1)C(=O)N[C@H](C=O)Cc1ccccc1,i,i,i,i
COc1ccc(CO[C@H]2O[C@H](CO)[C@@H](O)[C@H](O)[C@H]2NC(C)=O)c2cc(C)oc12,i,i,i,i
C[C@@H]1CN([C@@H](C)CO)C(=O)Cc2cc(NC(=O)Nc3cccc4ccccc34)ccc2O[C@@H]1CN(C)Cc1ccc(C(=O)O)cc1,i,i,i,i
COc1ccccc1Nc1ncnc2c1cnn2Cc1ccccc1,i,i,i,i
CC(C)NC(=O)Nc1ccc2c(c1)C(=O)N([C@H](C)CO)C[C@H](C)[C@H](CN(C)S(=O)(=O)c1cn(C)cn1)OCCCC[C@@H](C)O2,i,i,i,i
CC(C)NC(=O)N(C)C[C@@H]1OCCCC[C@H](C)Oc2ccc(NS(C)(=O)=O)cc2C(=O)N([C@H](C)CO)C[C@@H]1C,i,i,i,i
C[C@@H]1CN([C@@H](C)CO)C(=O)c2cc(NS(=O)(=O)c3ccccc3)ccc2O[C@@H](C)CCCCO[C@@H]1CN(C)Cc1ccccc1,i,i,i,i
O=C(Nc1ccc(-c2nc3ccccc3o2)c(O)c1)c1cc(-n2cnnc2)ccc1Cl,i,i,i,i
O=C1CS(=O)(=O)C(c2ccccc2)N1c1cccc(Cl)c1 (stereo not drawn),i,i,i,i
CCO[C@@H]1OC(C(=O)NCc2ccccc2)=C[C@H](C)[C@H]1CCCO,i,i,i,i
COC(=O)c1sc(NC(=O)COc2ccc(C(C)C)cc2)c(C#N)c1C,i,i,i,i
Cc1ccc(S(=O)(=O)N(C)C[C@@H]2Oc3ccc(NC(=O)C4CCCCC4)cc3CC(=O)N([C@H](C)CO)C[C@@H]2C)cc1,i,i,.,i
CCc1ccc(C(Nc2ccccn2)c2cc(Cl)c3cccnc3c2O)cc1 (stereo not drawn),i,i,i,i
C[C@H](CO)N1C[C@H](C)[C@H](CN(C)S(=O)(=O)c2cccs2)Oc2ccc(NC(=O)C3CCCCC3)cc2CC1=O,i,i,.,i
C[C@@H]1CN([C@H](C)CO)C(=O)Cc2cc(N(C)C)ccc2O[C@@H]1CN(C)Cc1ccncc1,i,i,i,i

# Some of the compounds tested (hit frequency here may not be typical).
